Assay outcomes (PubChem)
Mtb H37Rv: Mycobacterium tuberculosis H37Rv growth inhibition, putative kinase inhibitor library, confirmatory dose response (AID 2842). M. tuberculosis H37Rv growth inhibition; higher % means a stronger effect; some inactives read as strong as hits. one-dose inhibition, % at 10 µg/mL; IC90 in µg/mL for titrated hits. hit rate 5.2% among 24,000;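 active = confirmed in a dose series; inconclusive = mostly over 85% at the one dose but not retested; inactive = below 85% or not confirmed; about a fifth of its hits are not listed in these tables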;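 also: bacteria incubated one week before Alamar blue readout; 0% = bacteria only wells and 100% = bacteria with high antibiotic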
The depositor's hits bear a star; u = inconclusive. A portion of the library (hit frequency here may not be typical).

SMILES	Mtb H37Rv
O=c1c2nnn(Cc3ccccc3)c2ncn1Cc1ccc([N+](=O)[O-])cc1	-3.5%
COc1ccc(/C=N/NC(=O)c2n[nH]c3c2CCCC3)cc1	-2.2%
O=C1CCc2cc(S(=O)(=O)NC3CCCC3)cc3c2N1CCC3	-5.7%
O=C(Nc1nnc(-c2ccccc2)s1)C1CC1	8.9%
CCCC(=O)Nc1nnc(-c2ccccc2C)s1	13.8%
Nc1ncnc(Nc2ccc(S(=O)(=O)Nc3ncccn3)cc2)c1[N+](=O)[O-]	-7.4%
CCOC(=O)c1cnc2ccc(OCC)cc2c1Nc1ccccc1	u
Cc1ccnc(SCCn2c(N(C)Cc3ccccc3)nc3c2c(=O)n(C)c(=O)n3C)n1	-1.4%
CCCC(CCC)C(=O)Nc1scc2c(C(=O)OCC)nn(-c3ccc(F)cc3)c(=O)c12	-10.4%
COC(=O)COc1cccc2c(=O)n(CC(N)=O)ccc12	-1.3%
CC(=O)N1CCc2c(sc(NC(=O)c3cc(=O)c4ccccc4o3)c2-c2nc3ccccc3s2)C1	8.9%
O=C(COc1ccc(Cl)cc1Cl)Nc1nc2c(s1)CCCC2	3.1%
COc1ccc(N2CC(C)Cn3c2nc2c3c(=O)n(CC(=O)O)c(=O)n2C)cc1 (stereo unspecified)	-5.9%
COc1cccc(C(=O)Nc2nnc(C)s2)c1OC	9.0%
CC1(C)CC(=O)c2c(nc3sc(C(=O)N4CCOCC4)c(N)c3c2-c2ccccc2)C1	5.4%
COC(=O)c1ccc(NC(=O)c2cnc3scc(C)n3c2=O)cc1	1.1%
COc1ccc(/C=C/C(=O)Oc2cc(C)[nH]c(=O)c2[N+](=O)[O-])cc1OC	-5.9%
O=C(CSc1nc(=O)[nH]c2c1CCC2)c1ccc(F)cc1	-9.7%
O=C(Nc1nnc(-c2ccccn2)o1)c1ccccc1F	-6.4%
COC(=O)c1cccc(N/C=C(\C#N)c2nc3ccccc3[nH]2)c1	76.0%

Among those listed so far, three have fluorine:
SMILES	Mtb H37Rv
CCCC(CCC)C(=O)Nc1scc2c(C(=O)OCC)nn(-c3ccc(F)cc3)c(=O)c12	-10.4%
O=C(CSc1nc(=O)[nH]c2c1CCC2)c1ccc(F)cc1	-9.7%
O=C(Nc1nnc(-c2ccccn2)o1)c1ccccc1F	-6.4%

Following part
SMILES	Mtb H37Rv
CC1Cc2nc(SCC(=O)NCCc3ccccc3)n(C)c(=O)c2S1 (stereo unspecified)	-6.0%
COc1ccc(NC(=O)C(=O)Nc2cc3c4c(c2)CC(=O)N4CCC3)cc1	8.2%
CCOC(=O)c1oc2ccccc2c1NC(=O)c1ccccc1OCC	11.0%
O=C(Nc1nc(-c2cc3ccccc3oc2=O)cs1)c1cccc(Br)c1	-6.3%
CC(=O)N1CCc2c(sc(NC(=O)c3ccc(Br)s3)c2C(N)=O)C1	70.5%
CCN(CC)S(=O)(=O)c1ccc2c3c(cccc13)C(=O)N2C(=O)c1cccs1	11.3%
COc1ccc(-n2c(-c3ccccc3)cn3c4c(=O)[nH]c(=O)n(C)c4nc23)c(OC)c1	13.6%
CCOC(=O)COc1cccc2c(=O)n(CC(=O)NCCc3ccccc3)ccc12	-2.7%
O=C(O)c1ccccc1NC(=O)c1c2c(n3ccccc13)C(=O)c1ccccc1C2=O	9.8%
CCOc1cc(C(=O)Nc2c3c(nn2-c2ccc(OC)cc2)CSC3)cc(OCC)c1OCC	3.9%
COC(=O)c1c(NC(=O)C2CCCCC2)sc2c1CC(C)(C)NC2(C)C	58.5%
COCC(=O)Nc1ccc2c(c1)NC(=O)C(C)(C)CO2	8.6%
COC(=O)c1c(NC(=O)CC2Nc3cccc4cccc(c34)NC2=O)sc2c1CCC(C)C2 (stereo unspecified)	44.8%
O=C(Nc1nnc(-c2cc(Cl)ccc2Cl)o1)c1cccs1	0.76µg/mL*
O=C1Cc2cc(NC(=O)c3ccccc3Br)ccc2N1	-7.8%
CCOc1cccc2sc(Nc3nc4ccc(F)cc4s3)nc12	14.4%
O=C(O)CC(C(=O)O)N1C(=O)/C(=C/c2ccc(-c3cccc(Cl)c3)o2)SC1=S (stereo unspecified)	-9.6%
COc1cccc(-c2ccc3nnc(SCC(=O)Nc4nc(C)cs4)n3n2)c1	-6.4%
N#CCCN(C(=O)c1cc2ccccc2oc1=O)c1ccccc1	14.2%
Cc1ccccc1-c1nnc(NC(=O)c2ccc(C(=O)c3ccccc3)cc2)s1	5.1%

Entries listed so far with a furan ring, fused or not:
SMILES	Mtb H37Rv
CCOC(=O)c1oc2ccccc2c1NC(=O)c1ccccc1OCC	11.0%
O=C(O)CC(C(=O)O)N1C(=O)/C(=C/c2ccc(-c3cccc(Cl)c3)o2)SC1=S (stereo unspecified)	-9.6%

Remaining list, next part.
SMILES	Mtb H37Rv
COc1ccccc1CNC(=O)CN1C(=O)c2ccccc2S1(=O)=O	1.6%
C=CCn1c(=O)c2c3c(sc2n2c(Nc4ccc(C(=O)OCC)cc4)nnc12)CCC3	36.4%
Nn1c(SCC(=O)Nc2ccc(Cl)cc2)nnc1-c1ccncc1	0.5%
Cc1ccc(-c2ccc3nnc(SCc4c(F)cccc4Cl)n3n2)cc1	7.2%
CC(=O)Nc1ccc(Nc2c3c(c(C#N)c4nc5ccccc5n24)CCCC3)cc1	-5.9%
CCc1ccc(S(=O)(=O)c2cn(Cc3ccc(OC)cc3)c3ccc(OC)cc3c2=O)cc1	3.6%
CCCSc1nc2c(c(=O)n(C)c(=O)n2C)n1Cc1ccc(F)cc1	-13.9%
C/C(Cl)=C\CSc1nc2c(c(=O)[nH]c(=O)n2C)n1Cc1ccc(C)cc1	4.1%
COc1cccc(C(=O)Nc2nnc(-c3cccc(S(C)(=O)=O)c3)o2)c1	3.6%
COc1ccc(OC)c(-c2csc(NC(C)=O)n2)c1	4.5%
O=C(CC1CCS(=O)(=O)C1)Nc1ccccc1 (stereo unspecified)	-9.9%
COc1cccc(-c2ccc3nnc(SCC(=O)Nc4ccccc4F)n3n2)c1	-2.0%
O=C(O)CN1C(=O)S/C(=C\c2ccccc2[N+](=O)[O-])C1=O	-23.5%
O=C(Cn1ccn(-c2ccc3c(c2)OCO3)c(=O)c1=O)NCc1ccccc1	-9.9%
CCOC(=O)c1c(NC(=O)C(C)C)sc2c1CC(C)(C)NC2(C)C	11.1%
CC(=O)c1cccc(NC(=O)c2ccc(COc3ccc(C)cc3)o2)c1	3.4%
CCNC(=O)C(=O)Nc1cc2c3c(c1)CC(=O)N3CCC2	-3.0%
Cc1ccc(N2CC(NC(=O)Nc3ccncc3)CC2=O)cc1 (stereo unspecified)	-4.5%
N#Cc1c(NC(=O)c2cc(=O)c3ccccc3o2)sc2c1CCCC2	15.9%
CCOc1ccccc1NC(=O)CSc1nc(N)c(NC(=O)c2ccc(Br)o2)c(=O)[nH]1	-4.0%
CC(=O)Nc1ccc2c(=O)cc(-c3ccccc3F)oc2c1	-3.7%
NC(=O)c1ccsc1NC(=O)c1coc2ccccc2c1=O	4.6%
COc1ccc(S(=O)(=O)Nc2ccc(C(=O)Nc3sc4c(c3C(N)=O)CCCC4)cc2)cc1	-1.2%
COc1ccc(NS(=O)(=O)c2c[nH]c(=O)[nH]c2=O)cc1OC	-1.6%
Cn1c(=O)[nH]c(=O)c2c1nc(N1CCN(C(=O)c3ccco3)CC1)n2CCSc1ncccn1	-7.0%
Cc1cc(O)c(-c2[nH]ncc2-c2nc(C)cs2)c(O)c1	-12.5%
COc1cccc(C(=O)Nc2c(C(=O)Nc3ccc(F)c(F)c3)oc3ccccc23)c1OC	-7.9%
CS(=O)(=O)c1ccccc1-c1nnc(NC(=O)c2ccc([N+](=O)[O-])s2)o1	-7.2%
C=CCn1c(N(C)Cc2ccccc2)nc2c1c(=O)[nH]c(=O)n2C	0.7%
Oc1ccc(Nc2nc(-c3cccnc3)nc3ccccc23)cc1	7.1%
COc1cc2ccccc2cc1C(=O)Nc1nc(-c2ccc(F)cc2)cs1	3.0%
COc1ccc(C(=O)c2cn(Cc3cccc(C)c3)c3cc4c(cc3c2=O)OCCO4)cc1	-1.3%
O=C(CSc1ccc2nnc(-c3cccc(F)c3)n2n1)NCc1ccccc1	1.3%
COc1ccc(-n2c(=O)[nH]cc(C(=O)Nc3cc(C)ccc3OC)c2=O)cc1	2.9%
Nc1ncnc(N2CCN(Cc3ccccc3)CC2)c1[N+](=O)[O-]	2.7%
Cc1cc(C)cc(C(=O)Oc2cc(C)[nH]c(=O)c2[N+](=O)[O-])c1	13.0%
Cc1ccc(Cn2cc(SCC(=O)Nc3nnc(C)s3)c3ccccc32)cc1	2.9%
Nc1ncnc(NCCc2ccccc2)c1[N+](=O)[O-]	-3.6%
O=C(CN1C(=O)/C(=C\c2cccs2)SC1=S)Nc1ccccc1O	-9.8%
Cc1ccc(Cl)cc1NC(=O)c1cnc2scc(C)n2c1=O	6.7%
COc1ccc(-c2nnc3ccc(SCC(=O)Nc4ccc(Br)cc4)nn23)cc1	-6.9%
CCCCCNc1nc2c(c(=O)[nH]c(=O)n2C)n1CC(O)COc1cccc(C)c1 (stereo unspecified)	-8.9%
Cc1ccc(C(=O)c2cn(Cc3ccc(Cl)cc3)c3cc4c(cc3c2=O)OCO4)cc1	17.1%
COc1ccccc1-c1ccc2nnc(SCc3cccnc3)n2n1	2.5%
Cc1ccc(NC(=O)c2ccc(S(=O)(=O)N3CCOCC3)cc2)c(C)c1	3.4%
COc1ccccc1NC(=O)CSc1ccc2nnc(-c3cccs3)n2n1	-8.9%
Cc1cccc(Nc2ncnc(N)c2[N+](=O)[O-])c1C	0.0%
COc1ccc(C(=O)NCCc2cc3ccc(C)c(C)c3[nH]c2=O)cc1	4.6%
CCC(C(=O)Nc1c(C(=O)Nc2ccc(OC)cc2OC)oc2ccccc12)c1ccccc1 (stereo unspecified)	12.2%
O=C(Nc1nc(-c2ccc(Br)cc2)cs1)c1ccc(S(=O)(=O)N2CCc3ccccc32)cc1	7.7%
COc1ccccc1OCCCN1C(=O)C(=O)c2cc(C)ccc21	-4.5%
O=C(Nc1nc(-c2ccncc2)cs1)C1COc2ccccc2O1 (stereo unspecified)	u
CC(=O)C1=C(C)NC(SCC(=O)Nc2ccc(C)cc2)=C(C#N)C1c1ccc(Cl)cc1 (stereo unspecified)	80.1%
CCCNc1nc2ccccc2nc1NS(=O)(=O)c1cccc2nsnc12	-8.9%
COc1ccccc1N1C(=O)N(c2ccc(F)cc2)C2CS(=O)(=O)CC21 (stereo unspecified)	-2.9%
O=C(/C=C/c1cccc([N+](=O)[O-])c1)N(Cc1cccnc1)c1nc2c(F)cc(F)cc2s1	13.6%
O=C(/C=C1\SC(=O)N(CC(=O)Nc2ccccc2)C1=O)Nc1ccccc1	1.2%
COC(=O)c1ccc(NC2=C(Cl)C(=O)N(c3ccccc3)C2=O)cc1	4.4%
Cc1ccc(NC(=O)c2cc(S(=O)(=O)N3CCCCC3)ccc2F)cc1C	-7.5%
O=C(Nc1ccc2c(c1)OCO2)c1oc2ccccc2c1NC(=O)c1cc2ccccc2oc1=O	-15.4%

Grouped by structure, the entries above containing a COOH group.
SMILES	Mtb H37Rv
COc1ccc(N2CC(C)Cn3c2nc2c3c(=O)n(CC(=O)O)c(=O)n2C)cc1 (stereo unspecified)	-5.9%
O=C(O)c1ccccc1NC(=O)c1c2c(n3ccccc13)C(=O)c1ccccc1C2=O	9.8%
O=C(O)CC(C(=O)O)N1C(=O)/C(=C/c2ccc(-c3cccc(Cl)c3)o2)SC1=S (stereo unspecified)	-9.6%
O=C(O)CN1C(=O)S/C(=C\c2ccccc2[N+](=O)[O-])C1=O	-23.5%

Later entries:
SMILES	Mtb H37Rv
COc1ccc(S(=O)(=O)NC2CC(=O)N(c3ccc4c(c3)OCCO4)C2)cc1OC (stereo unspecified)	-1.4%
O=c1c2[nH]c3ccccc3c2nc(SCCC2OCCO2)n1-c1ccccc1F	u
O=C(CSc1nc2c(oc3ccccc32)c(=O)n1-c1ccc(F)cc1)Nc1ccc(F)c(Cl)c1	10.7%
C=CCOC(=O)C1=C(C)NC(=O)NC1c1ccc(O)c(OC)c1 (stereo unspecified)	5.5%
CCOc1ccccc1C(=O)Nc1nnc(-c2cc(OC)ccc2OC)s1	4.3%
Cc1ccc(C(=O)Nc2ccccc2-c2nc3ccccc3[nH]c2=O)cc1	3.9%
O=C(CCN1CCOCC1)N/N=C/c1ccc(OC(=O)c2cccnc2)cc1	-4.5%
Fc1ccc2nc(Nc3cccc(Cl)c3)sc2c1	20.2%
Cc1ccc(CSc2[nH]c(=O)ncc2C)cc1	-13.9%
CCN(c1ccccc1)S(=O)(=O)c1ccc(C(=O)Nc2ccc3c(c2)C(=O)N(C)C3=O)cc1	0.6%
O=C(Nc1nc2c(cc3c4c(cccc42)CC3)s1)c1ccccc1Br	6.7%
CSc1cccc(-c2nnc(NC(=O)c3ccc([N+](=O)[O-])cc3)o2)c1	80.4%
CCCCCCSc1nc2c(c(=O)[nH]c(=O)n2C)n1CC(O)COc1ccccc1 (stereo unspecified)	78.5%
O=C1CCc2cc(S(=O)(=O)Nc3ccc(Br)cc3)cc3c2N1CCC3	4.2%
CCc1cc2c(=O)[nH]c(C)nc2s1	-1.1%
O=C(Nc1nnc(-c2ccncc2)o1)c1cccc(N2C(=O)CCC2=O)c1	-8.2%
CCC(Sc1nncn1C)C(=O)Nc1nnc(-c2ccccc2Cl)s1 (stereo unspecified)	-2.8%
CN1CCN(c2nc3c(c(=O)n(C)c(=O)n3C)n2CCSc2ncccn2)CC1	-1.7%
CCOC(=O)c1[nH]c2ccccc2c1NC(=O)c1cccs1	3.8%
Cc1sc2ncnc(Nc3cccc(C(=O)O)c3)c2c1C	-10.3%
Nc1nc(SCC(=O)c2ccccc2)[nH]c(=O)c1NC(=O)c1ccc(C(F)(F)F)cc1	-2.8%
COc1ccc(S(=O)(=O)NCc2ccco2)cc1C(=O)O	-14.5%
O=C1CC2(CCN(C(=O)Cc3cccc4ccccc34)CC2)Oc2ccccc21	9.6%
COc1ccc(S(=O)(=O)Nc2ccc3c(c2)OCO3)cc1[N+](=O)[O-]	1.7%
CC(C)NC(=O)CSc1ccnc2c1c(=O)n(C)c(=O)n2C	-6.6%
Cc1ccc(NC(=NS(=O)(=O)c2ccc(C)cc2)c2ccc(Cl)cc2)cc1	-5.3%
